Bioassay records as filed in PubChem BioAssay.
Insulin prom inh = TRM-6 insulin promoter activity inhibition | TRM-6 cells (human fetal islet line), insulin promoter-eGFP reporter, imaging; reporter expression induced with tamoxifen | inhibition, % at 2 µM | 130,000 tested, 0.9% active | AID 1273;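 active = inhibition above the mean plus 3 SD, with well images judged a real hit on visual review, cut at about 60% in these data, passing the limit was not always enough; inconclusive = inhibition over the cutoff but images rejected on review; inactive = inhibition not above the cutoff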
GALR2 ag = activates the human galanin receptor 2. O43603. GALR2-expressing cells, agonist activation read-out. activation, %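 (tested at 5 µM)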. 140,000 tested, 0.48% active. AID 803;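 active = above mean plus 3 SD of all compounds, about 5% in these data, not always enough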;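 note: 0% = vehicle buffer wells and 100% = reference agonist at full effect; tested in CHO reporter cells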
Target sequence (O43603 whole entry, looked up): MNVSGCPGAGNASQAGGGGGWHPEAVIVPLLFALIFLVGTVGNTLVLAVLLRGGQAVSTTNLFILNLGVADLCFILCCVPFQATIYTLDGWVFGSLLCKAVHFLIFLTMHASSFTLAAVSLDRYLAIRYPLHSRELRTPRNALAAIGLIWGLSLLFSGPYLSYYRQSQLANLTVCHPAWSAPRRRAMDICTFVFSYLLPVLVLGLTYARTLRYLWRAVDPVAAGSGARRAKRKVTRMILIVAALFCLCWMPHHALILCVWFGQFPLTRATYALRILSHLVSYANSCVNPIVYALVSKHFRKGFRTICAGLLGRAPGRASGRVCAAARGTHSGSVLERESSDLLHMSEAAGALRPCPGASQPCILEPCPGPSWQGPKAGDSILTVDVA
PKD1 kinase inh = blocks activity of human protein kinase D1. 200,000 tested, 0.056% active. inhibition, %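 (about 10 µM by stock and volumes)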. AID 797. PKD1 kinase fluorescence polarization assay;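 active = inhibition of 50% or more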;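 note: controls were vehicle for no effect and a reference inhibitor for full effect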
RGS16-Gao = RGS16-Galphao interaction regulator (human); O15492+P09471; bead-based flow cytometry RGS16-Galphao binding, fluorescence; actives lie on both sides; binding response (% of control), % at 10 µM; 220,000 tested, 0.38% active; AID 1441;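 active = below 25% or above 175%, edge rows of some plates excepted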;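 note: Galphao activated by GDP with aluminum fluoride before binding; 100% = wells without compound and 0% = beads without RGS; some results beyond the cut were filed as inactive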
Target sequence (O15492 whole entry, looked up): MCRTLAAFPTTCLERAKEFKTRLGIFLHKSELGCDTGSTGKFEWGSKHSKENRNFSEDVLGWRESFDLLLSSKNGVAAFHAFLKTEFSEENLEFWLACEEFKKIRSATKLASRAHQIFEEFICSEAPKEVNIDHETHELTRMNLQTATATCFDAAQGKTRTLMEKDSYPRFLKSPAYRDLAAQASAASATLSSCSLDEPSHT
Target sequence (P09471 whole entry, looked up): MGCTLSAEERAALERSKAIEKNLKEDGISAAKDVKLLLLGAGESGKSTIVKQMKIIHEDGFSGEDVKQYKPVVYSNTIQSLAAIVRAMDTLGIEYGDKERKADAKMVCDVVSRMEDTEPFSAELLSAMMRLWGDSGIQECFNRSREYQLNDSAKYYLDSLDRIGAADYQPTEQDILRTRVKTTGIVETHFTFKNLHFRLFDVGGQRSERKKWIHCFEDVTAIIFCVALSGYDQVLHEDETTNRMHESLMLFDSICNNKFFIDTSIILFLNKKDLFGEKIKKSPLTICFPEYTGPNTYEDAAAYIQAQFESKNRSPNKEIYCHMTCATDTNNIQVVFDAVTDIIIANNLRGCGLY
HSV replic up = HSV replication enhancement; HSV replication augmentation in cells, fold increase; 220,000 tested, 0.005% active; maximum fold increase;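 active = peak rise of 1.5-fold or more in the series; inconclusive = self-fluorescent or not available for retest; tested in PC3 cells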;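 note: first round at 10 µM; read as green reporter fluorescence; hits show the peak of a series up to 25 µM; 1 = signal of infected wells without compound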
Insulin prom inh cell count = also measured in Insulin prom inh; calls as there; normalized cell count, %; measured here: cell count, toxicity; reference of the scale not given here;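 cells exposed to compound for 48 h; stained nuclei by imaging scaled within each plate; lower means fewer cells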
HSV replic up primary fold = also measured in HSV replic up; calls as there; fold increase; compound at 10 µM; measured here: primary screen fold increase 10 uM; tested in PC3 cells;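 GFP signal in the first replicate; 1 = infected wells without compound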
* hit, by the source's call; i = inactive; ? = inconclusive; nt = no result given.

SMILES	Insulin prom inh	Insulin prom inh cell count	GALR2 ag	PKD1 kinase inh	RGS16-Gao	HSV replic up	HSV replic up primary fold
Cc1ccc(-n2c(C)cc(C(=O)COC(=O)c3ccc[nH]c3=O)c2C)cc1C	13	118	0.0	4	88	i	0.98
O=S(=O)(c1ccccc1)n1ccc2ccccc21	nt	nt	-0.9	-15	106	i	0.96
COc1ccc(C2C(C#N)=C(N)OC3=C2C(=O)CC(C)(C)C3)cc1Cn1cc([N+](=O)[O-])cn1 (stereo unspecified)	nt	nt	-0.1	-4	105	i	1.1
CCn1ncc(/C=N/NC(=O)c2cc(Cl)ccc2OC)c1C	14	86	-0.8	5	99	i	0.94
O=C1NN=C(c2ccc(Br)cc2)CC1c1ccc(Cl)cc1 (stereo unspecified)	nt	nt	nt	0	93	i	1
Cc1cc(NC(=O)CCCN2C(=O)/C(=C\c3cccs3)SC2=S)no1	nt	nt	0.1	-11	104	i	0.9
Cc1nc2c3cc(F)ccc3n(Cc3ccccc3F)c2s1	23	108	-0.5	-16	98	i	0.67
Cc1nn(CC(=O)c2ccccc2)c(=O)c2nn(-c3ccccc3F)c(C)c12	31	99	0.1	2	110	i	0.94
N#CCCn1cc(C(=O)N2CCCCC2)c(-c2cccc([N+](=O)[O-])c2)n1	nt	nt	nt	-1	97	i	1
O=C(NCc1ccco1)C(Cc1ccccc1)NS(=O)(=O)c1cccc2nsnc12 (stereo unspecified)	nt	nt	-3.8	2	102	i	0.93
Cc1sc2nc(SCC(=O)Nc3ccc(S(=O)(=O)NCCCC(=O)O)cc3)[nH]c(=O)c2c1C	nt	nt	nt	-9	103	i	1.2
CCOC(=O)N1CCN(C(=O)CN(Cc2ccccc2)S(=O)(=O)c2ccc(OC)c(C)c2)CC1	-47	141	-0.7	-1	103	i	0.92
COc1ccc(CCNC(=O)Cn2c(=O)n(-c3cc(F)ccc3F)c(=O)c3sccc32)cc1OC	-36	107	nt	-1	113	i	1.1
Cc1cc(C)n2nc(SCC#N)nc2n1	nt	nt	-2.1	-9	99	i	1.2
COc1cccc(CNC(=O)c2ccc(S(=O)(=O)N3CCCC3)cc2)c1	7	140	-1.9	-13	104	i	0.91
CCCCCCC(=O)NC(Nc1ccc(S(N)(=O)=O)cc1)C(Cl)(Cl)Cl (stereo unspecified)	43	170	-3.8	-6	105	i	0.89
CC1CC2(CC(C)(C(=O)CSc3n[nH]c(-c4ccccc4Cl)n3)OC2=O)C(=O)O1 (stereo unspecified)	-69	104	-1.8	-8	106	i	1.1
CCCn1nnc(NC(=O)c2ccc(OC)cc2)n1	-29	148	0.1	-5	106	i	1
Cc1ccccc1N(CC(=O)N1CCN(c2ccccc2)CC1)S(C)(=O)=O	7	136	-2.5	1	100	i	0.93
Cc1nn(S(=O)(=O)N2CCOCC2)c(C)c1Br	39	154	nt	1	103	i	0.99
O=C(C1CCCO1)N1CCc2ccccc21 (stereo unspecified)	-25	99	0.3	-5	94	i	1.1
CC1CCC(C(=O)NC(C(=O)NCCN2CCC(C)CC2)C(C)C)CC1 (stereo unspecified)	60	64	-0.4	2	106	i	0.89
COc1ccc(CC(=O)Nc2nc(-c3ccncc3)cs2)cc1	-53	143	nt	-1	102	i	0.89
COc1ccc(C(=O)N/N=C(\C)CC(=O)Nc2ccc3c(c2)OCO3)cc1	nt	nt	nt	nt	97	i	0.94
COc1cc(OC)c(NC(=O)CCNS(=O)(=O)c2ccc3c(c2)oc(=O)n3C)cc1Cl	0	84	nt	5	113	i	0.87
O=C(O)c1cccc(N2C(=O)c3ccc(Oc4ccc(Cl)cc4)cc3C2=O)c1	nt	nt	nt	6	111	i	1
CC(=O)Nc1ccc(NC(=O)COC(=O)c2c(C)nn(-c3ccccc3)c2C)cc1	-22	47	-1.0	-8	107	i	0.93
CCOC(=O)C1(CCCCCCOc2ccc(Cl)cc2)CO1 (stereo unspecified)	nt	nt	nt	nt	90	i	0.7
Cc1ccccc1N1C(=O)c2ccccc2C1Nc1cccnc1 (stereo unspecified)	nt	nt	-1.6	-13	102	i	0.92
CC(C)Cn1nc(NC(=O)C2CCCO2)c2cc3ccccc3nc21 (stereo unspecified)	nt	nt	0.5	0	96	nt	nt

A section from the list above:
SMILES	Insulin prom inh	Insulin prom inh cell count	GALR2 ag	PKD1 kinase inh	RGS16-Gao	HSV replic up	HSV replic up primary fold
CCCCCCC(=O)NC(Nc1ccc(S(N)(=O)=O)cc1)C(Cl)(Cl)Cl (stereo unspecified)	43	170	-3.8	-6	105	i	0.89
CC1CC2(CC(C)(C(=O)CSc3n[nH]c(-c4ccccc4Cl)n3)OC2=O)C(=O)O1 (stereo unspecified)	-69	104	-1.8	-8	106	i	1.1
CCCn1nnc(NC(=O)c2ccc(OC)cc2)n1	-29	148	0.1	-5	106	i	1

Next records follow.
SMILES	Insulin prom inh	Insulin prom inh cell count	GALR2 ag	PKD1 kinase inh	RGS16-Gao	HSV replic up	HSV replic up primary fold
Cc1cc(/C=C2/NC(=O)NC2=O)c(C)n1-c1cccnc1	-35	135	0.1	-2	115	i	0.92
COc1ccc(/C(C#N)=C/c2c(-c3ccc(Cl)cc3)nc3c(C)cccn23)cc1	0	57	0.3	4	98	i	0.96
CO/N=C/c1cn(-c2ccc(Cl)cc2)nn1	18	116	nt	-3	97	i	1
CC(C)OC(=O)CC12CN(C)CC(CC(=O)OC(C)C)(CN(C)C1)C2=O	29	91	-1.2	5	186	i	0.98
COc1ccc(C(=O)NCC(=O)N/N=C/c2cccc(OC(=O)c3ccco3)c2)cc1OC	nt	nt	nt	-5	106	i	0.95
CCOC(=O)c1csc(-c2sccc2Br)n1	nt	nt	nt	nt	96	i	0.99
O=C(/C=C/c1ccco1)N/C(=C\c1ccco1)C(=O)NCCc1nc2ccccc2[nH]1	-21	124	-1.1	-5	109	i	1
COc1cc(C=O)c(Br)cc1OCC(=O)NCc1ccccc1	nt	nt	nt	0	96	i	0.89
COc1cc(/C=N/N=C2/C(=O)Nc3ccccc32)ccc1O	30	93	0.1	17	96	i	0.91
CN(C)c1ccc(C=C2C(=O)OC(C)(C(C)(C)C)OC2=O)cc1 (stereo unspecified)	40	75	-0.7	2	105	i	0.9
CC(=O)Nc1cc2c(cc1NC(=O)Cn1nc(-c3ccccc3F)ccc1=O)OCCO2	12	94	-4.5	5	92	i	1
COc1ccc(-c2nn(CC(=O)N3CCCCC3)c(=O)c3ccccc23)cc1	32	115	-0.9	2	102	nt	nt
CC(=O)Nc1ccc(-c2nn[nH]n2)cc1Cl	9	167	-0.4	0	102	i	1
Cc1ccc(NC(=S)N/N=C/c2c(Cl)cccc2Cl)c(C)c1	30	9	0.1	-1	99	i	0.71
Cc1oc(/N=C/c2ccccc2O)c(C#N)c1C	18	73	-0.4	-3	105	i	1.3

In a second layout: entries from further up.
mol,Insulin prom inh,Insulin prom inh cell count,GALR2 ag,PKD1 kinase inh,RGS16-Gao,HSV replic up,HSV replic up primary fold
CC(=O)Nc1cc2c(cc1NC(=O)Cn1nc(-c3ccccc3F)ccc1=O)OCCO2,12,94,-4.5,5,92,i,1
CC(=O)Nc1ccc(-c2nn[nH]n2)cc1Cl,9,167,-0.4,0,102,i,1
Cc1oc(/N=C/c2ccccc2O)c(C#N)c1C,18,73,-0.4,-3,105,i,1.3
COc1cc(/C=N/N=C2/C(=O)Nc3ccccc32)ccc1O,30,93,0.1,17,96,i,0.91

Next records
SMILES	Insulin prom inh	Insulin prom inh cell count	GALR2 ag	PKD1 kinase inh	RGS16-Gao	HSV replic up	HSV replic up primary fold
CCn1c(=O)cc(SCC(=O)N2CCC(C)CC2)c2ccccc21	nt	nt	0.4	-9	101	i	0.95
OC(COC(c1ccc(Cl)cc1)c1ccc(Cl)cc1)CN1CCN(c2ccccn2)CC1 (stereo unspecified)	0	128	-0.1	11	100	i	0.85
Cc1nn(CC(=O)NCc2ccc(C(=O)O)cc2)c(C)c1[N+](=O)[O-]	-33	100	nt	0	97	i	1.1
Cc1ccccc1C(=O)NCCc1nnc(SCC(=O)Nc2nc(-c3ccccc3)cs2)n1C	-20	125	-0.6	0	110	i	0.97
Cc1cccc(NC(=S)N2CCC(O)CC2)c1C	18	82	nt	-6	101	i	0.98
CCC(C)NC(=O)c1cc(Cl)ccc1OC (stereo unspecified)	21	38	-2.2	-8	103	i	0.87
CCOC(=O)C1=NN(c2ccccc2C)C2=NC(C)=C(C(=O)OC)C(c3cccs3)N12 (stereo unspecified)	-10	143	-0.2	-3	27	i	0.82
CCn1c(=O)cc(NC2=NCC(C)CN2c2cccc(Cl)c2)n(C)c1=O (stereo unspecified)	nt	nt	0.3	2	95	i	0.82
CCOC(=O)c1ccc(-n2c(CN3CCC(C(N)=O)CC3)nc3ccc([N+](=O)[O-])cc3c2=O)cc1	nt	nt	nt	3	99	i	0.89
CCn1c(COc2ccc(Cl)cc2)nnc1SCc1ccc(C#N)cc1	36	123	-2.3	-2	97	i	1
Oc1ccc(Nc2nc(-c3cccs3)cs2)cc1	-20	80	-0.9	-3	100	i	0.9
COc1cccc(-c2csc(N3CCN(C(=O)Nc4ccccc4Cl)CC3)n2)c1	nt	nt	nt	-6	97	i	1.1
CN(C)S(=O)(=O)c1cccc(NC(=O)COC(=O)/C=C/c2ccc3c(c2)OCO3)c1	nt	nt	nt	1	101	i	1.1
Cn1c(=O)c2c(SCC(=O)N3CCN(c4ccccc4)CC3)nc(C3CC3)nc2n(C)c1=O	nt	nt	nt	-4	103	i	1
COc1ccc(NC(=O)c2onc(C)c2Cl)cc1	nt	nt	nt	nt	101	i	0.98
CS(=O)(=O)c1ccc(Cl)c(NC(=O)COC(=O)c2ccc(F)cc2Cl)c1	nt	nt	nt	-1	108	i	0.96
O=C(/C=C/c1ccccc1)NNC1=NS(=O)(=O)c2ccccc21	nt	nt	nt	-1	88	i	0.93
CC(C)OCCCNc1ncc2c(n1)CC(c1cccs1)CC2=O (stereo unspecified)	nt	nt	nt	0	96	i	1
Cc1c(NC(=O)C2CCCCN2S(=O)(=O)c2ccc(Cl)cc2)c(=O)n(-c2ccccc2)n1C (stereo unspecified)	nt	nt	0.5	18	96	i	0.86
CCC(C)(C)NC(=O)C(c1ccc(F)cc1)N(Cc1ccco1)C(=O)CCC(=O)Nc1ccccn1 (stereo unspecified)	nt	nt	-1.6	10	103	i	0.83
Cc1cccc(C)c1N1C(=O)c2cccc([N+](=O)[O-])c2C1=O	nt	nt	-1.3	-1	119	i	1
Cn1c[n+](C)cc1/C=N/O	nt	nt	-1.1	-4	98	i	0.98
COc1ccc(CCNC(=O)CCCNC(=O)Cn2cnc3sc(C)c(C)c3c2=O)cc1OC	nt	nt	nt	1	101	i	0.87
Cc1ccc(-n2nnc(-c3nccs3)n2)cc1	nt	nt	nt	7	100	i	1
COc1ccc(NC(=O)CC2SC(=NCC3CCCO3)NC2=O)cc1 (stereo unspecified)	-3	85	-1.2	-5	31	i	1
CCS(=O)(=O)N1N=C(c2cccc(NS(C)(=O)=O)c2)CC1c1ccccc1 (stereo unspecified)	-385	106	nt	3	109	?	nt
Cc1cc(C(=O)Nn2c(-c3ccncc3)nc3ccccc3c2=O)ccc1[N+](=O)[O-]	0	116	nt	-5	93	i	0.95
Cc1cc(C(=O)COc2ccccc2C(N)=O)c(C)n1C1CC1	64	123	nt	8	106	i	0.93
O=C(Nc1cccc2nsnc12)c1ccc2c(c1)OCO2	17	95	-0.3	-15	94	i	0.95
COc1ccc(CCN2C(=O)NC(NC(=O)CCc3ccccc3)(C(F)(F)F)C2=O)cc1OC (stereo unspecified)	-74	80	0.4	-2	36	i	0.8
O=C(CSc1cccc[n+]1[O-])Nc1c(Br)cc([N+](=O)[O-])cc1Br	nt	nt	nt	-5	102	i	0.95
O=C(Nc1cccnc1)c1c(O)c2cccc3c2n(c1=O)CC3	19	107	0.2	0	125	i	0.93
Cc1ccc(-n2c(SCc3nc4ccccc4c(=O)[nH]3)nnc2-c2ccccc2O)cc1	0	62	0.7	-16	132	i	0.73
O=C(CCCn1cc([N+](=O)[O-])cn1)NCc1ccccc1	nt	nt	nt	-6	96	i	0.91
COC(=O)c1ccc(C(=O)OC)c(NC(=O)CN2CCN(c3ccc(OC)cc3)CC2)c1	-3	23	-1.4	-1	97	i	0.88
O=C1c2cccc3cccc(c23)N1Cc1ccc(F)cc1	-25	101	0.4	1	106	i	1.1
CC(C)CC(=O)Nc1ccc(S(=O)(=O)NCc2ccco2)cc1	-93	60	-1.0	-4	103	i	0.79
O=C(c1cc2c(=O)n3ccccc3nc2s1)N1CCOCC1	15	112	-0.6	9	101	nt	nt
Cc1ccc(NC(=O)CSc2nc3ccccc3c3nc(CCc4c(C)n[nH]c4C)nn23)cc1F	-33	95	0.3	10	99	i	0.7
Oc1c(N=Nc2ccccn2)ccc2ccccc12	26	45	-5.2	-2	112	i	0.43
CCOC(=O)N1CCN(c2cc(=O)n(C)c(=O)n2C)CC1	nt	nt	nt	nt	98	i	0.95
